Screening results from PubChem.
UCH37 DUB inh = blocks the human deubiquitinase UCH37 | purified proteasome/UCH37, Ub-AMC cleavage fluorescence | 0.33% of 330,000 active | inhibition, % (test concentration not listed) | Q9Y5K5;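 active = mean of two replicates above 20%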;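 also: 0% = compound-free wells with enzyme and 100% = wells lacking proteasome; stock transfer was 100 nL into about 20 µL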
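Signal – fluorescence, ex 355 nm, em 460 nm · System – Proteasome-bound UCH37 · Input – 0.15 nM proteasome as dispensed · Timing – 30 min preincubation with enzyme, 25 min cleavage at room temperature · Read-out basis – percent inhibition of cleavage signal versus uninhibited and no-proteasome wells · Medium – Tris-HCl pH 7.4 with ATP-MgCl2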
Bfl-1 A1 inh = inhibitors of the anti-apoptotic protein A1, read as caspase activation; MEF A1-2A-BIM cells, Caspase-Glo 3/7 luminescence, 3 h; percent of clofoctol response, vehicle zero; caspase activation, % (concentration not given with the values); 0.066% of 330,000 active; AID 2462;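 active = over half of replicate activation scores above 10%, or exactly half above 10 with the replicate mean above 10; inconclusive = replicate mean below 10 yet half the replicates above 10; inactive = over half of replicates below 10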;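 also: wells of about 30 µL received 50 nL stock; many hits fall short of the cut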
Ecoli growth = inhibitors of Escherichia coli growth | 0.21% of 330,000 active | AID 1053175 | OD600, 23 h; stronger effect = lower value | OD600 absorbance (no concentration beside the values);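 active = OD600 absorbance below the run mean of sample wells minus 3.6 SD, in any replicate, cut at about 0.56 in these data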;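 also: stock transfer was 300 nL into about 60 µL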
B2AR ag = agonists of human beta-2 adrenergic receptor inducing internalization; Am2.2-beta2AR cells, FAP receptor internalization, flow cytometry; reference of the scale not given here; response, % (no concentration beside the values); 0.43% of 340,000 active; AID 504454;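 active = response above a set limit, near 3 SD of response in nonfluorescent compounds, cut at about 42% in these data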;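 also: stock transfer was 100 nL into about 11 µL; a reference agonist was the positive control; negative values mostly stem from fluorescent compounds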
LANA-H2B inh = blocks KSHV LANA binding to histone H2A/H2B; 0.6% of 320,000 active; AID 2629; cell-free LANA-H2A/H2B peptide, fluorescence polarization; inhibition, % (no concentration beside the values); in the data active = inhibition mostly above about 10%, no sharp cut-off; inactive = mostly below about 6.7%;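 also: stock transfer was 7.5 nL into about 10 µL; 0% = median of vehicle wells and 100% = median of positive control wells; one replicate is shown; the record names a cut of 25% in any replicate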
Target sequence (Q9QR71 whole entry, looked up): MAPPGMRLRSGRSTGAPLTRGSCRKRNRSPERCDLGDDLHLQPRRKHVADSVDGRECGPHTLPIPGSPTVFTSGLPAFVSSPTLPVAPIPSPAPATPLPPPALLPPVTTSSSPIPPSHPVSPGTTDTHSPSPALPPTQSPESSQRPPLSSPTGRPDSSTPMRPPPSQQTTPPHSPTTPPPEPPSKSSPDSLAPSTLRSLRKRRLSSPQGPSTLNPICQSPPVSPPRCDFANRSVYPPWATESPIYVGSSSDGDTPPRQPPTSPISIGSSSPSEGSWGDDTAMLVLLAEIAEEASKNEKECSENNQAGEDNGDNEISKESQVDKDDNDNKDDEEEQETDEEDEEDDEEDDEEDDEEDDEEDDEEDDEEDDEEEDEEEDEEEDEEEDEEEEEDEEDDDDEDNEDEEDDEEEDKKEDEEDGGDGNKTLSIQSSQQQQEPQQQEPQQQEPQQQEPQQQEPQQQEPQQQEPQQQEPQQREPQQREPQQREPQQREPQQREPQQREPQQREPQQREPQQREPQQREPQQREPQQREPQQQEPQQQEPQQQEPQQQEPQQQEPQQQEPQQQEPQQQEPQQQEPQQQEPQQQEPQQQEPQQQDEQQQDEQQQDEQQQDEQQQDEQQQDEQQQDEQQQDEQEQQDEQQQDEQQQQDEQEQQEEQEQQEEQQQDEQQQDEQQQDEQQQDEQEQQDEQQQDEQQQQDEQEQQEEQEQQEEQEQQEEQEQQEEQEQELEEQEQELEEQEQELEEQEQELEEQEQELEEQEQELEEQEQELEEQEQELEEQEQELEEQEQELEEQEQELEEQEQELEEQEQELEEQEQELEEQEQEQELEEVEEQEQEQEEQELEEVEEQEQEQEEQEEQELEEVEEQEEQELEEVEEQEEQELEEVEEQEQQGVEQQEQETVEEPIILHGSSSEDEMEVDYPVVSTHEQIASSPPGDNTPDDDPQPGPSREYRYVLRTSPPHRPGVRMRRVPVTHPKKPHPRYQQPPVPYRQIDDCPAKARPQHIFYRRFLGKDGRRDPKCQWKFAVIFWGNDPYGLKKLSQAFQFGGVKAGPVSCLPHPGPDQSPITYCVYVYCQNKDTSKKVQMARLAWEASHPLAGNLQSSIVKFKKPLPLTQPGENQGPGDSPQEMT
Vif TR-FRET = inhibitors of Vif binding to APOBEC3G peptide, primary screen, biochemical, TR-FRET, GST-Vif 1-94, biotin-A3G peptide, dose response retest (AID 1117319); TR-FRET GST-Vif / biotin-A3G peptide binding; higher % means a stronger effect; test concentration not given here; strong numbers were not always called active; inhibition, %, or IC50 in µM where a hit was titrated; 0.57% of 260,000 active;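 active = above the screen mean plus three standard deviations and confirmed in dose response; inconclusive = results disagree or hit not tested in dose response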;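 also: Vif residues 1-94 fused to GST binding biotinylated APOBEC3G peptide 110-148; 0% = full assay without inhibitor and 100% = GST in place of GST-Vif; retest series ran down from 100 µM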
HNF4A DNA FP = change in binding of human HNF4 alpha to DNA. P41235. HNF4a-FITC DNA binding, fluorescence polarization, 1 h. activity change, % at 10 µM. 0.3% of 360,000 active; in the data active = activity change above about 30%, passing the limit was not always enough;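 also: controls were the assay level and a saturating level of protein; the project sought stronger binding though the title names inhibitors; some compounds called inactive have numbers as strong as hits; positive values seem to mean higher polarization but the record does not say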
Active calls of the source: *; ? = inconclusive; . = not tested or not shown.

SMILES	UCH37 DUB inh	Bfl-1 A1 inh	Ecoli growth	B2AR ag	LANA-H2B inh	Vif TR-FRET	HNF4A DNA FP
CC(=O)NCc1cc(-c2nn(C)c(=O)c3ccccc23)ccc1C	5.6	-0.1	0.7	-1	1.7	16%	-2.4
C(=N\N(Cc1ccccc1)c1ccccc1)/c1ccco1	.	0.4	.	-4	2.1	15%	-2.3
O=S(=O)(Nc1nc(-c2sccc2Cl)cs1)c1cc(Cl)ccc1Cl	10	0.9	0.71	23	6.1	6%	-19
CCOCCCNC(=O)c1c[nH]c2ccc(OCC)cc2c1=O	-1.8	0.2	0.69	5	-1.8	3%	2.1
O=C(Nc1cccc(C(F)(F)F)c1)OCc1ccncc1	1.5	0.3	0.63	-1	-2.2	.	-0.5
CS(=O)(=O)c1ccc(C(=O)NC(Cc2ccccc2)c2ccccc2)cc1 (stereo not drawn)	2.6	0.7	0.69	7	7.8	4%	0.8
O=S(=O)(c1ccc(Cl)cc1)N1CCCC1c1nc(-c2ccc(Cl)cc2)no1 (stereo not drawn)	3.0	0.5	0.74	-12	2.8	-2%	3.8
Cc1cc(C(=O)N/N=C/c2cc([N+](=O)[O-])cc(C)c2O)n[nH]1	.	.	.	7	.	20%	-1.0
CCC(=O)Nc1ccc(C=C(C(C)=O)C(C)=O)cc1	2.2	1.2	0.67	-6	0.3	0%	-0.9
CC(=O)Nc1ccc(N=Nc2ccccc2)cc1	9.7	-4.7	0.66	5	2.4	72%	-0.1
O=C(Nc1ccccc1Cl)Nc1ccccc1Cl	5.4	-1.2	0.66	0	1.7	8%	-1.7
O=S1(=O)CCN2N=C(C3CC3)SC2=N1	1.9	-0.4	0.71	2	-1.6	13%	-5.9

Exported with bars between the fields: part of the list above.
SMILES | UCH37 DUB inh | Bfl-1 A1 inh | Ecoli growth | B2AR ag | LANA-H2B inh | Vif TR-FRET | HNF4A DNA FP
CCC(=O)Nc1ccc(C=C(C(C)=O)C(C)=O)cc1 | 2.2 | 1.2 | 0.67 | -6 | 0.3 | 0% | -0.9
CC(=O)Nc1ccc(N=Nc2ccccc2)cc1 | 9.7 | -4.7 | 0.66 | 5 | 2.4 | 72% | -0.1

Remaining list, next part.
SMILES	UCH37 DUB inh	Bfl-1 A1 inh	Ecoli growth	B2AR ag	LANA-H2B inh	Vif TR-FRET	HNF4A DNA FP
CCOc1ccc(OCC)c(S(=O)(=O)N2CCCCC2)c1	3.2	-0.2	0.72	3	-0.4	23%	4.1
Cn1c(-c2ccc(F)cc2)cnc1NCc1ccc(F)cc1	4.8	-0.2	0.69	-4	5.7	2%	2.0
CN1C[C@@H]2[C@@H]3C(=O)N(Cc4ccccc4)C(=O)[C@@H]3[C@](C)(C1=O)N2C(=O)c1ccc(F)cc1	3.1	.	.	1	.	.	4.5
COc1ccc(/C=C2\N=C(SC)N(c3ccccc3OC)C2=O)cc1	-5.0	-0.7	0.7	12	1.5	3%	-1.6
COc1cc(NC(=O)c2ccc(F)cc2)ccc1NC(=O)c1cc2ccccc2o1	-48	0.4	0.72	0	4.4	-2%	-2.4
Cc1ccc(N2CCCn3c2cc(C)c(C#N)c3=O)cc1C	-22	?	0.67	8	-4.2	-2%	-3.2
O=c1[nH]c(SCc2cccc(Cl)c2)nc2ccccc12	3.2	0.0	0.73	3	2.3	?	-0.2
COc1ccc(CCCc2nnc(SCC(=O)Nc3ccccc3F)o2)cc1	0.4	0.1	0.68	-6	6.3	3%	2.9
CC(OC(=O)C12CCC(=O)N1c1ccccc1S2)C(=O)Nc1cccc(Cl)c1 (stereo not drawn)	5.8	0.0	0.71	5	-5.0	-8%	1.2
Cn1c(=O)c2c(ncn2CC(=O)OCC(=O)Nc2cc(Cl)ccc2C#N)n(C)c1=O	1.7	0.1	0.66	4	-1.6	14%	-1.1
CC(C)(C)n1ncc2c(=O)n(CC(=O)NCCc3ccccc3)cnc21	1.0	0.0	0.7	-13	-0.3	15%	-2.4
CC(=O)Nc1ccc(S(=O)(=O)NCc2cn3ccsc3n2)cc1	-1.4	-0.2	0.7	2	3.0	5%	2.5

One compound at a time, as listed above. Values in the order: UCH37 DUB inh	Bfl-1 A1 inh	Ecoli growth	B2AR ag	LANA-H2B inh	Vif TR-FRET	HNF4A DNA FP
`Cc1ccc(N2CCCn3c2cc(C)c(C#N)c3=O)cc1C` reads -22	?	0.67	8	-4.2	-2%	-3.2
`CC(OC(=O)C12CCC(=O)N1c1ccccc1S2)C(=O)Nc1cccc(Cl)c1` (stereo not drawn) reads 5.8	0.0	0.71	5	-5.0	-8%	1.2
`Cn1c(=O)c2c(ncn2CC(=O)OCC(=O)Nc2cc(Cl)ccc2C#N)n(C)c1=O` reads 1.7	0.1	0.66	4	-1.6	14%	-1.1

Following part:
SMILES	UCH37 DUB inh	Bfl-1 A1 inh	Ecoli growth	B2AR ag	LANA-H2B inh	Vif TR-FRET	HNF4A DNA FP
CC1CCN(C(c2cccs2)c2nnnn2Cc2ccccc2)CC1 (stereo not drawn)	0.4	0.3	0.71	-5	-0.3	11%	6.3
CN(C)Cc1nnnn1-c1cccc(-n2nnnc2CN(C)C)c1	5.4	0.7	0.69	0	-0.9	-1%	-14
CC(=O)c1cnc(N2CCCCC2)nc1C	11	0.7	0.74	2	-4.8	-1%	1.2
Cc1ccc(S(=O)(=O)N2CCOCC2)cc1NC(=O)CSc1nnnn1C1CCCC1	3.6	0.7	0.67	3	-3.6	1%	-3.4
Cc1ccccc1Cn1cc(NC(=O)COc2ccccc2)cn1	1.8	-0.2	0.73	7	1.3	1%	0.1
Nc1cc(-c2cccc(Br)c2)nn1Cc1ccccc1	1.7	0.3	0.67	-29	-0.2	-1%	-0.9
c1ccc(COc2ccc(OCCn3cncn3)cc2)cc1	2.3	-0.2	0.69	-3	0.8	1%	-1.8
Cc1cc(OCCSc2nnc(-c3cccs3)n2C)ccc1Cl	5.6	0.5	0.7	-9	0.7	8%	0.1
Cc1nn(CC(=O)NCc2ccco2)c(C)c1[N+](=O)[O-]	1.8	0.0	0.72	1	2.1	.	-0.6
O=C(Cn1nc(-c2ccccc2)c2ccccc2c1=O)Nc1cccc(O)c1	3.3	-0.5	0.65	-21	5.9	-7%	-6.6
CC1CCC(C(=O)NC(C(=O)N2CCc3ccccc3C2)C(C)C)CC1 (stereo not drawn)	-1.1	0.1	0.7	-1	-3.1	1%	6.2
COC(=O)CNC(=O)c1cn(CC(C)C)c(=O)c2cc(OC)c(OC)cc12	0.8	0.2	0.7	-6	0.9	-6%	-3.5

Among those listed so far, these have a furan ring, fused or not.
SMILES	UCH37 DUB inh	Bfl-1 A1 inh	Ecoli growth	B2AR ag	LANA-H2B inh	Vif TR-FRET	HNF4A DNA FP
C(=N\N(Cc1ccccc1)c1ccccc1)/c1ccco1	.	0.4	.	-4	2.1	15%	-2.3
COc1cc(NC(=O)c2ccc(F)cc2)ccc1NC(=O)c1cc2ccccc2o1	-48	0.4	0.72	0	4.4	-2%	-2.4
Cc1nn(CC(=O)NCc2ccco2)c(C)c1[N+](=O)[O-]	1.8	0.0	0.72	1	2.1	.	-0.6

The main list resumes with the two entries that preceded the break.
SMILES	UCH37 DUB inh	Bfl-1 A1 inh	Ecoli growth	B2AR ag	LANA-H2B inh	Vif TR-FRET	HNF4A DNA FP
CC1CCC(C(=O)NC(C(=O)N2CCc3ccccc3C2)C(C)C)CC1 (stereo not drawn)	-1.1	0.1	0.7	-1	-3.1	1%	6.2
COC(=O)CNC(=O)c1cn(CC(C)C)c(=O)c2cc(OC)c(OC)cc12	0.8	0.2	0.7	-6	0.9	-6%	-3.5
Cc1cccc(NS(=O)(=O)c2cc3c(cc2C)NC(=O)CO3)c1	2.0	.	0.73	4	-5.0	.	1.8
Cc1cc([N+](=O)[O-])nn1CC(=O)Nc1cc(F)ccc1F	1.7	-0.6	0.69	3	-6.0	.	3.0
Cc1ccc(S(=O)(=O)N2CCN(C(=O)Cn3c(=O)oc4ccccc43)CC2)c(C)c1	-2.6	0.3	0.7	-3	-0.1	.	-0.4
Cc1ccc(CNC(=O)CC(C)S(=O)(=O)c2ccc3c(c2)NC(=O)C(C)S3)cc1 (stereo not drawn)	2.9	0.9	0.69	16	-0.8	.	3.8
CC(C)Nc1nnc(SC(C)C(=O)N(C)C2CCCCC2)s1 (stereo not drawn)	1.0	-0.6	0.63	-10	0.9	-4%	-0.5
COc1c(Br)cc(Br)cc1C(=O)Nc1ccccc1N1CCCC1	2.3	0.5	0.71	-6	1.7	-4%	1.7
Cc1cc(Nc2cc(Cl)nc(Sc3ccc(NC(=O)C4CC4)cc3)n2)n[nH]1	4.9	0.6	0.67	7	4.1	.	0.5
COc1ccc(C)cc1NC(=O)CN(c1ccccc1F)S(C)(=O)=O	3.2	-0.9	0.68	6	0.9	-1%	-1.4
COC(=O)c1ccccc1NC(=O)Nc1cccnc1	-3.2	0.9	0.68	1	-1.1	-7%	12
COc1cccc(NC(=O)C2CCN(S(=O)(=O)c3ccc4[nH]c(=O)oc4c3)CC2)c1	0.7	0.2	0.67	4	1.6	22%	0.5
Cc1onc(-c2ccccc2)c1C(=O)N1CCN(c2ccccn2)CC1	2.6	-0.3	0.69	-9	1.8	.	1.0
O=C(NCc1ccc(Cl)cc1)C1CCN(S(=O)(=O)c2cccs2)CC1	0.9	1.8	0.66	-8	3.7	4%	-1.1
CSc1nc(C)c(Cc2ccccc2)c(=O)[nH]1	2.5	1.4	0.63	-5	0.3	-2%	-4.5
CSc1nsc(SC)c1NC(=O)OCc1ccccc1	-1.6	-0.3	0.71	5	-3.9	-2%	2.9
COc1ccc(Nc2cc(C)c3ccc(O)cc3n2)cc1	-21	0.3	0.6	10	-2.5	.	-0.2
CCN1CCN(c2cc(C)c3cc(NC(=S)N4CCN(c5ccccc5)CC4)ccc3n2)CC1	-24	0.6	0.69	8	-4.6	-2%	0.3
CCCn1c(=N)n(CC(=O)c2ccc(Cl)c(Cl)c2)c2ccccc21	7.4	1.4	0.61	36	0.7	-3%	-1.4
COc1ccc(C2C(C#N)=C(N)N(Nc3ccccc3)C3=C2C(=O)CC(C)(C)C3)cc1C (stereo not drawn)	-8.8	-1.2	0.71	5	6.2	-2%	-0.5
COC(=O)N1C(=O)[C@](c2ccccc2)(C2CCCCC2)N1C(=O)OC	3.1	0.7	0.66	0	-6.6	.	-0.5
Cc1ccc(/C=N/n2nnnc2N)cc1[N+](=O)[O-]	.	-0.1	.	-5	1.0	-4%	1.5
COCCNC(=S)N/N=C/c1ccc(OCc2ccc(C(=O)OC)cc2)c(OC)c1	.	0.7	.	.	3.2	-1%	.
COC(=O)CSC1=C(C#N)C(c2ccc(Cl)cc2)C(C(=O)OC)C(=O)N1 (stereo not drawn)	3.6	0.2	0.74	11	5.4	?	0.6
O=C(CC1C(=O)NCCN1Cc1c(F)cccc1Cl)NC1CCCCCC1 (stereo not drawn)	0.3	1.7	0.72	-9	-8.2	?	5.0
O=C(O)CCC(=O)N1N=C(c2cccs2)CC1c1cccc([N+](=O)[O-])c1 (stereo not drawn)	8.4	1.8	0.67	-2	5.6	-2%	4.0
NS(=O)(=O)c1cccc(NC(=O)c2cc(-c3cccs3)nc3ccccc23)c1	-61	0.1	0.69	8	-3.9	-10%	2.6

The order is random; any-hit rate near 2.1%.
